ClpP mod = qHTS Assay for Activators of ClpP. purified B. subtilis ClpP, FRET peptide cleavage, 20 min. Potency, µM (series often up to 57.5 µM), for inactives: top-dose activity change, negative = active. 340,000 compounds, 1.9% hits; active = well fitted falling curve with a large enough effect; inconclusive = small, poorly fitted or top-dose-only effect; inactive = no such curve, though single readings can be large or run the other way; also: potency is read from the fitted curve at half-maximal effect; the source files actives as falling curves though it sought activators and does not explain the sign; nearly all actives have a fitted effect of over 65% in size; many hits overshoot -100%
Target sequence (P80244 whole entry, looked up): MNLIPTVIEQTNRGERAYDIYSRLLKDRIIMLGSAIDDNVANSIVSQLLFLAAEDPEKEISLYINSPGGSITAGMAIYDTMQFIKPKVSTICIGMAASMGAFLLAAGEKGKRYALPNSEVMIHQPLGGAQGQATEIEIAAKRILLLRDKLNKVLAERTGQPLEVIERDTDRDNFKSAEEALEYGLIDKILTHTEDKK
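ClpP 10 microg/mL final, pH 8 Tris/KCl buffer with BSA, glycerol, Tween-20; compound pinned in; FRET-FV substrate; RT 20 min; Ex320/Em430; ΔFRET vs ADEP 5.8 microM, DMSO, no enzyme.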
Sfp PPTase inh = blocks B. subtilis Sfp PPTase activity; Q9F4F7; Biochemical Sfp PPTase activity, qHTS; Potency, µM, without a hit: max response, negative = inhibition, usual class: inhibitors; 310,000 compounds, 3.5% hits; active = well fitted inhibition curve with a large enough effect; inconclusive = small, poorly fitted or top-dose-only effect, or another doubt; inactive = no such curve, though single readings can be large or run the other way;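 also: the enzyme is Sfp with the accession as filed and its product quenches rhodamine fluorescence; potency is read from the fitted curve at half-maximal effect; 0% = enzyme reaction without inhibitor and -100% = no enzyme wells; top concentration of the series not given in the record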
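With Hepes-Na pH 7.6 buffer containing 10 mM MgCl2, Sfp (15 nM) modified BHQ-2-YbbR (12.5 uM) using rhodamine-CoA (5 uM). Two reads 30 minutes apart at 525/598 nm yielded each well's rate.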
CtBP-E1A inh = blocks the CtBP interaction with E1A; AlphaScreen GST-E1A/His-CtBP binding, 1536-well; active compounds read low; control for the full effect not named in the record; activity change, % (no concentration beside the values); 340,000 compounds, 0.49% hits; in the data active means activity change below about -65%; inconclusive means about -30% to -65%; inactive means above about -30%; also: % is scaled to controls: 0 for no effect and ±100 for the full control effect
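Steps: dispense buffer (Tris pH 8.0, NaCl 300 mM, TCEP 1 mM, BSA, Tween 20); add 5X protein mix (GST-E1A, His-CtBP, 125 nM each); pin 23 nL compound; 2 h at 37 °C, dark; add 5X beads (50 ug/mL); 1 h; read.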
gsp antagonist = gsp mutant antagonism | Potency, µM (highest dose often 76.9 µM), for the others: at the top dose activity change, negative = inhibition, hits mostly inhibitors | AID 624288 | gsp-mutant cells, cAMP HTRF, 30 min; control for the full effect not named in the record | 340,000 compounds, 0.4% hits; active = falling curve of any shape with a large fitted effect; inconclusive = falling curve, mostly with a smaller effect; inactive = flat or rising curve; cell line not stated here;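 also: intracellular cAMP measured with PDE inhibitor Ro 20-1724 present during compound exposure; potency is read from the fitted curve at half-maximal effect; % is scaled to controls: 0 for no effect and ±100 for the full control effect; nearly all actives have a fitted effect of over 65% in size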
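G418-selected cells were plated in DMEM/10% FBS for 16-24 h at 37C, then treated with compounds plus the PDE inhibitor […] (300 uM solution added) for 30 min at 37C. Intracellular cAMP was measured by HTRF after 30 min lysis at room temperature.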
Menin MLL FP FL = displaces fluorescein MLL peptide from human menin; FP activity change, % at 61.4 µM; Fluorescence polarization, fluorescein-MLL peptide displacement from menin; 290,000 tested, under 10 active; inconclusive = falling polarisation curve, or a change in total fluorescence; inactive = total fluorescence flat and polarisation flat or rising; no compound was filed as active; the % refers to the polarisation; negative = inhibition;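 also: % of control where 0% means no effect; inhibitors lower the polarisation; unlabelled MLL peptide was the positive control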
gsp ag = gsp mutant agonism | gsp mutant cells, cAMP HTRF, 30 min; control for the full effect not named in the record | Potency, µM (top dose mostly 76.9 µM), for the others: at the highest dose activation (cAMP increase), most hits filed as activators | 340,000 compounds, 0.13% hits | AID 624287; active = well fitted activation curve with a large enough effect; inconclusive = small, poorly fitted or top-dose-only effect, or another doubt; inactive = no such curve, though single readings can be large or run the other way; cell line not stated here;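 also: phosphodiesterase inhibitor Ro 20-1724 added with compounds to block cAMP breakdown; potency is read from the fitted curve at half-maximal effect; nearly all actives have a fitted effect of over 60% in size; about a fifth of the inactives were tested at one dose only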
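Cells stably selected in G418 were plated at 2000/well, grown 16-24 hr, then given compounds in DMSO with the PDE inhibitor […] (300 uM solution added) for 30 min at 37C; cAMP was read by HTRF.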
TRPV1 potentiator = enhances activation of the human vanilloid receptor TRPV1; 320,000 compounds, 0.02% hits; AID 540277; TRPV1-expressing cells, Fluo-8 calcium influx, capsaicin EC20 potentiation; host cell line not named in the record; control for the full effect not named in the record; potentiation, % at 8.33 µM; Q8NER1; active means potentiation above 80%; inconclusive means 30% to 80%; inactive means below 30%; also: 0% is about no effect
Target sequence (Q8NER1 whole entry, looked up): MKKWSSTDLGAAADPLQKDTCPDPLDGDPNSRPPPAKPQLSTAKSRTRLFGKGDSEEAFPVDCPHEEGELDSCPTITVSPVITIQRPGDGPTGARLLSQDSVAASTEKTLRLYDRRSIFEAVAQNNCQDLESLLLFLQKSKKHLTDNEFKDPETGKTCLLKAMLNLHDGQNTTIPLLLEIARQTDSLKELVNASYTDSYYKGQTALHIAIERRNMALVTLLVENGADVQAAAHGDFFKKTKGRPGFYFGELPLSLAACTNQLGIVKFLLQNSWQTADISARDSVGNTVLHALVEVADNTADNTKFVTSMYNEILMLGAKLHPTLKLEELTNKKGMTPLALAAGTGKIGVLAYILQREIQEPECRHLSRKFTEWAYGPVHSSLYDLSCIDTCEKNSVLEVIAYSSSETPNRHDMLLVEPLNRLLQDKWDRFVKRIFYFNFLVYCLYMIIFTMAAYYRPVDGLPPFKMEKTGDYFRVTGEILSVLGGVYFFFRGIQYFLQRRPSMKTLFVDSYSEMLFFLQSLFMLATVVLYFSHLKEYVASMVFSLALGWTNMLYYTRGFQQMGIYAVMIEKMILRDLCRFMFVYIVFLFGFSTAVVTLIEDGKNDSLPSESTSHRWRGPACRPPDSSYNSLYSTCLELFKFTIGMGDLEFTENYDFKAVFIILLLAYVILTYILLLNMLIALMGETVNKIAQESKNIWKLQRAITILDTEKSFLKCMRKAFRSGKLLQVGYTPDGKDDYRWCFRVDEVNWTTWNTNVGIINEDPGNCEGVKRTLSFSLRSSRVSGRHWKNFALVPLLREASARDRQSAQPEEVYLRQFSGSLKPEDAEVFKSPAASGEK
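TRPV1-expressing cells were cultured overnight at 35.5C and loaded with Fluo-8 calcium dye for 40 to 90 min at room temperature. After a 10 s baseline, compound was added and calcium influx was read kinetically for 3 min (ex 480/em 520 nm).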
* hit, by the source's call; ? = inconclusive; · = no result given; & = joins results of further samples; [ ] = remark or other dose.

SMILES	ClpP mod	Sfp PPTase inh	CtBP-E1A inh	gsp antagonist	Menin MLL FP FL	gsp ag	TRPV1 potentiator
O=C(NCc1ccco1)c1cc(-c2cccs2)nc2ccccc12	25µM*	-18%	-3	-20%	-0.2	-43%	-1
Cc1ccc(CNC(=O)c2ccc3c(=O)n(CC4CCCO4)c(=S)[nH]c3c2)cc1 (stereo not given)	-2.6%	0%	2	-13%	2.2	24%	-5
O=c1cc(CCl)nc2sc3ccccc3n12	-2.5%	13%	-3	-11%	3.0	?	1
CC(C)(C)c1ccc(OCCCn2ccnc2)cc1	·	-12%	-10	0%	-2.9	-22%	-33
CCOc1ccc(NS(=O)(=O)c2ccc(NC(C)=O)c(OC)c2)cc1	-0.3%	13%	6	-2%	3.9	6%	7
O=C(/C=C/c1ccccc1)NCc1ccco1	·	7%	-15	9%	-0.1	-26%	-8
CC(=O)c1ccc(-n2c(=O)[nH]c(=O)c3c(N)c(C(=O)c4ccc(Cl)cc4)sc32)cc1	-1.5%	-2%	1	-39%	2.4	-43%[inhibitor]	12
CC(C)C[C@H](NC(=O)N1CCn2c1nc1ccccc12)C(=O)NCCc1ccccc1	-0.1%	15%	-1	-9%	-6.4	12%	4
CC1(C)C(=O)OC(c2cccn2-c2ccc([N+](=O)[O-])cc2)C(C)(C)C1=O (stereo not given)	1.4%	-3%	-6	-4%	-0.6	-35%[inhibitor]	16
Cc1cccc2nc(COc3ccc4ccccc4c3Br)cn12	·	?	-18	-9%	2.6	?	1
COc1ccc(COC(=O)c2ccc(Cl)c(S(=O)(=O)N3CC(C)OC(C)C3)c2)cc1 (stereo not given)	-1.4%	·	-2	-5%	·	-25%	0
Cc1ccc(C(=O)Nc2sc(C)c(C)c2C(=O)c2ccccc2)cc1	-1.7%	20µM*	4	-4%	-1.1	5%	-5
Cc1ccccc1C(=O)N1c2ccccc2OCC1C(C)(C)C (stereo not given)	0.2%	7%	·	-17%	0.2	-10%	?
CCn1c(SCc2nc3ccccc3[nH]2)nnc1-c1cnccn1	-2.9%	5%	1	9%	1.4	-13%	-4
CC(=O)O[C@@H]1[C@@]2(C)O[C@H]2CC[C@]23O[C@H]2[C@H](OC3=O)C2=C(C)C(=O)O[C@@]21O	1.4%	4%	8	9%	4.8	·	23
COc1ccc(CNC(=O)C(C)OC(=O)CN2C(=O)COc3ccccc32)cc1 (stereo not given)	-2.5%	11%	18	-6%	-2.9	23%[15.4 µM]	-18
Cc1cc(NC(=O)CCC(=O)N(Cc2ccco2)C(C)(C)C(=O)NC2CCCCC2)no1	-4.9%	18%	-2	-13%	1.1	3%	5
O=C(COc1ccc(Cl)cc1)Nc1cnn(Cc2c(Cl)cccc2Cl)c1	3.2%	-6%	-14	6%	0.3	-27%	-1
COc1ccc(C(=O)Nc2ccccc2N2CCN(C(=O)C(C)C)CC2)cc1Cl	1.7%	4%	-1	0%	0.5	-2%	-11
CC(C)(C)c1ccc(Cn2nnc3c(=O)[nH]c(C4CCN(C(=O)Cc5cccs5)CC4)nc32)cc1	7.1%	-11%	-4	9%	7.4	-5%	10
O=S(=O)(NCC(O)COCc1ccco1)c1cccs1 (stereo not given)	1.6%	45µM*	-9	1%	3.6	10%	-6
Cc1cc(=O)[nH]c(SCC(=O)N2CCN(C(c3ccccc3)c3ccccc3)CC2)n1	-3.4%	5%	2	-15%	-0.9	-12%	-3
O=C(CCc1ccncc1)NC1CCCc2c1cnn2-c1ccc(F)cc1F (stereo not given)	1.5%	15%	10	-5%	2.2	-52%[inhibitor]	-4
COc1cccc(/C(O)=C2/C(=O)C(=O)N(CCN(C)C)C2c2ccc(Br)cc2)c1 (stereo not given)	-2.9%	6%	4	12%	2.9	-15%	3
COc1ccc(OC)c(S(=O)(=O)Nc2ccccc2SC)c1	0.9%	6%	-3	-6%	1.3	-2%	3

Other records:
SMILES	ClpP mod	Sfp PPTase inh	CtBP-E1A inh	gsp antagonist	Menin MLL FP FL	gsp ag	TRPV1 potentiator
Cc1cc(C)c2c(=O)[nH]n(C(C)C)c2n1	-1.5%	3%	0	13%	-1.7	0%	10
Cn1c(Sc2ccc(Cl)cc2)c(C=O)c2ccccc21	1.6%	-11%	16	7%	5.6	21%	16
CCCS(=O)(=O)N1CCN(C(=O)CCC2CCCC2)CC1	0.8%	11%	8	-2%	-1.0	11%	-19
Cc1cnc(C(=O)OCc2cc(=O)n3c(C)cccc3n2)cn1	·	·	-1	8%	·	?	·
CC[C@H](C)[C@@H]1NC(=O)c2cc([N+](=O)[O-])cc(I)c2NCC[C@@H](C(N)=O)NC(=O)[C@H](CCCN=C(N)N)NC1=O	1.3%	5%	2	7%	3.1	·	-22
CCOc1ccc(NCc2cccn2-c2nnc(N3CCC(C(=O)NCCCN4CCCCC4)CC3)s2)cc1	2.2%	0%	·	-12%	·	2%	-6
CN(C)N(C(=O)c1cc(-c2cccs2)nn1-c1ccccc1)C1CCS(=O)(=O)C1 (stereo not given)	-0.9%	·	-14	-21%	·	?	-6
CC(C(=O)NCc1ccccc1)N(Cc1ccccc1Cl)C(=O)c1snc(C(N)=O)c1N (stereo not given)	·	11%	-14	-5%	-2.6	-3%	4
Cc1ccc(NC(=O)C2C3C=CC4(O3)C2C(=O)N(CCCN2CCCC2)C4C(=O)NC2CCCCC2)cc1Cl (stereo not given)	·	15%	3	11%	-3.1	?	3
CCc1cccc(C)c1NC(=S)N(CCCN1CCN(C)CC1)Cc1cccs1	·	-14%	-8	10%	0.7	-10%[15.4 µM]	?
COC(=O)C1CCN(C(=O)c2cc3c(=O)n4cccc(C)c4nc3n2Cc2ccccc2)CC1	0.5%	3%	4	?	2.6	-4%[15.4 µM]	9
CC(C)(C)C1CCc2sc(C(=O)NNC(=O)CCl)cc2C1 (stereo not given)	0.6%	11%	18	0%	0.9	-16%	-25
Cc1nn(C)c(C(=O)N/N=C/c2ccc(-c3ccccc3)cc2)c1Cl	3.2%	-4%	4	6%	·	?	?
CC(C)(CN=C1NS(=O)(=O)c2ccccc21)CNC(=O)c1ccccc1	0.6%	14%	4	-13%	-1.5	?	3
COc1ccc(-c2cn(Cc3cccc(OC)c3)nn2)cc1	1.1%&-7.0%	-5%	8	-6%	-6.6	-20%	-15
CN(C(=O)c1cccc(Br)c1)C1CCS(=O)(=O)C1 (stereo not given)	·	·	0	9%	·	2%[15.4 µM]	-6
COc1ccc(OC)c(S(=O)(=O)N2CCC(C(=O)NCc3ccccc3)CC2)c1	0.5%	8%	6	-12%	4.2	-30%	-13
C1CCN(c2nc3nonc3nc2N2CCCC2)C1	0.0%	7%	4	4%	2.3	11%	0
Cc1ccc(Cn2c(CN3CC(C)OC(C)C3)nc3c2c(=O)n(C)c(=O)n3C)cc1 (stereo not given)	-9.0%	1%	0	3%	0.0	-62%[inhibitor]	?
CC1CCCCC1NC(=O)CCS(=O)(=O)c1cccc2nonc12 (stereo not given)	4.4%	2%	0	8%	0.8	?	0
CN1CCN(c2nc(Nc3ccc(F)cc3)nc(Nc3ccc(F)cc3)n2)CC1	-2.4%	?	-22	10%	-0.6	7%	6
N#CC1=C(N)OC2=C(C(=O)CC(c3ccco3)C2)C1c1ccc(OCc2c(F)cccc2Cl)cc1 (stereo not given)	0.0%	-25%	-6	-13%	·	-1%	18

Looked up by structure from the entries so far, 7 records:
SMILES	ClpP mod	Sfp PPTase inh	CtBP-E1A inh	gsp antagonist	Menin MLL FP FL	gsp ag	TRPV1 potentiator
COc1ccc(-c2cn(Cc3cccc(OC)c3)nn2)cc1	1.1%&-7.0%	-5%	8	-6%	-6.6	-20%	-15
Cc1nn(C)c(C(=O)N/N=C/c2ccc(-c3ccccc3)cc2)c1Cl	3.2%	-4%	4	6%	·	?	?
CCc1cccc(C)c1NC(=S)N(CCCN1CCN(C)CC1)Cc1cccs1	·	-14%	-8	10%	0.7	-10%[15.4 µM]	?
CN(C)N(C(=O)c1cc(-c2cccs2)nn1-c1ccccc1)C1CCS(=O)(=O)C1 (stereo not given)	-0.9%	·	-14	-21%	·	?	-6
CC(C)(CN=C1NS(=O)(=O)c2ccccc21)CNC(=O)c1ccccc1	0.6%	14%	4	-13%	-1.5	?	3
Cc1ccc(Cn2c(CN3CC(C)OC(C)C3)nc3c2c(=O)n(C)c(=O)n3C)cc1 (stereo not given)	-9.0%	1%	0	3%	0.0	-62%[inhibitor]	?
N#CC1=C(N)OC2=C(C(=O)CC(c3ccco3)C2)C1c1ccc(OCc2c(F)cccc2Cl)cc1 (stereo not given)	0.0%	-25%	-6	-13%	·	-1%	18

A draw from above in order of SMILES length, high to low.
SMILES	ClpP mod	Sfp PPTase inh	CtBP-E1A inh	gsp antagonist	Menin MLL FP FL	gsp ag	TRPV1 potentiator
Cc1ccc(NC(=O)C2C3C=CC4(O3)C2C(=O)N(CCCN2CCCC2)C4C(=O)NC2CCCCC2)cc1Cl (stereo not given)	·	15%	3	11%	-3.1	?	3
CC1CCCCC1NC(=O)CCS(=O)(=O)c1cccc2nonc12 (stereo not given)	4.4%	2%	0	8%	0.8	?	0
COc1ccc(-c2cn(Cc3cccc(OC)c3)nn2)cc1	1.1%&-7.0%	-5%	8	-6%	-6.6	-20%	-15

Source: PubChem BioAssay (National Center for Advancing Translational Sciences (NCATS))
